# Vaccinia Venus = qHTS for Stage-Specific Inhibitors of Vaccinia Orthopoxvirus: Venus Reporter Primary qHTS; Vaccinia virus Venus reporter expression, fluorescence; Potency, µM (doses to about 36.5 µM), inactives show at the highest dose activity change, negative = inhibition, actives largely listed as inhibitors; actives 0.46% (n = 330,000); active means well fitted inhibition curve with a large enough effect; inconclusive means small, poorly fitted or top-dose-only effect; inactive means no such curve, though single readings can be large or run the other way; tested in A549 cells; further: nearly all actives have a fitted effect of over 30% in size; inactives centre near -10
# VACV mCherry inh = qHTS for Stage-Specific Inhibitors of Vaccinia Orthopoxvirus: mCherry Reporter Primary qHTS. Vaccinia virus mCherry reporter infection, fluorescence; about a quarter of the inactives have no number. Potency, µM (doses to about 36.5 µM), for the others: at the highest dose activity change, negative = inhibition, usual class: inhibitors. actives 0.63% (n = 310,000); active = well fitted inhibition curve with a large enough effect; inconclusive = small, poorly fitted or top-dose-only effect; inactive = no such curve, though single readings can be large or run the other way; tested in A549 cells; further: nearly all actives have a fitted effect of over 35% in size; inactives centre near -10
# An asterisk follows results filed as active; i = inactive; ? = inconclusive; . = not tested or not shown; [ ] = dose if it differs, or a comment. On the % scale 0 is the no-effect control and ±100 the full control effect; potency means the concentration at half of the fitted maximal effect.
SMILES,Vaccinia Venus,VACV mCherry inh
CNC(=O)[C@@H]1C[C@H](NC2CCCCCCC2)CN1Cc1cccc(OC)c1OC,-0.9%,-9.9%
CCN(C1CCCCC1)S(=O)(=O)c1cc2c3c(c1)CCN3C(=O)CC2,-7.5%,-14.5%
C=C(C)CN1C(=O)C(C)SC1=NN=C1SCC(=O)N1C (stereo unspecified),-15.4%,i
COc1ccc(CNC(=O)c2cc3ccccn3n2)cc1OC,-1.4%,-7.5%
CCCN(C)C1CN(Cc2cn(Cc3ccc(C)cc3)nn2)S(=O)(=O)C1 (stereo unspecified),-1.7%,22.1%
COC(=O)C1=C(c2ccc(C(C)=O)cc2)C[C@@H]2CC[C@H]1N2C(=O)NCC1CC1,-9.6%,-26.1%
O=C(NCC1CCCO1)c1cc(-c2ccccc2)nc2ccccc12 (stereo unspecified),15.0%,8.9%
COCCNc1nc(NCCOc2ccccc2)c2sc(-c3ccccc3)cc2n1,-26.4%,-26.7%
NC(=O)c1c(NC(=O)C2CCCO2)sc2c1CCCC2 (stereo unspecified),?,-20.5%
O=C(Nc1ccc(S(=O)(=O)Nc2ncccn2)cc1)c1cc(=O)c2ccccc2o1,-7.8%,-12.5%
CCN(C(=O)CCc1nnc2ccc(N3CCC4(CC3)OCCO4)nn12)c1ccccc1,-14.4%,i
CC(C)N(C(=O)[C@H]1C[C@H](CC(=O)NCCN2CCOCC2)C(=O)N2CCc3c([nH]c4cc(-c5ccco5)ccc34)[C@]12C)C(C)C,?,-10.9%
O=C(c1cc(-c2cccc(O)c2)on1)N1CCCCCC1,17.3%,-9.3%
Cc1ccc(Cc2c(-c3cccc(Cl)c3)nc3ccc(C)cn23)cc1,-0.2%,25.7%
NCCCC[C@@H](C(=O)N1CCNCC1)n1cc(CCC(=O)O)nn1,-1.7%,-10.5%
CCOc1ncccc1C(=O)Nc1cc(S(=O)(=O)N2CCCCC2)ccc1OC,-11.7%,i
Nc1c(Cl)cc(C2=NCCn3nc4cc([N+](=O)[O-])ccc4c32)cc1Cl,-18.3%,-13.5%
CCOc1ccc(-c2nnn(CC(=O)NCc3ccco3)n2)cc1OCC,-13.3%,.
CS(=O)(=O)N(CC(=O)NCCSCc1ccccc1)c1ccccc1,-12.3%,i
Cc1cccc(-c2cccc(C(=O)N3CCc4c(cnc(C)c4CNC(=O)c4cncs4)C3)c2)c1,-10.1%,-20.0%
CCOc1ccc(CCN2C(=S)N([C@@H](Cc3ccccc3)CN3CCCC3CN3C(=S)NC[C@@H]3Cc3ccccc3)C[C@@H]2Cc2ccc(O)cc2)cc1 (stereo partly specified),-16.1%,-19.2%
COc1ccc(-c2nc3cccc(C)n3c2Nc2ccc(C)cc2)cc1,?,?
O=c1[nH]nc(-c2cccs2)c2ccccc12,-10.5%,-14.4%
C=CCn1c(SCC(=O)Nc2cc(C)on2)nnc1-c1ccccc1F,-2.9%,i
Cc1cccc(OCC(=O)NCC(=O)N/N=C/c2ccc([N+](=O)[O-])cc2)c1,-10.9%,-5.4%

# Next entries:
SMILES,Vaccinia Venus,VACV mCherry inh
CCc1nnc2c(Nc3ccc(N(CC)CC)cc3C)nc3ccccc3n12,-0.6%,-9.1%
CC(C)N1CCN(c2ccncc2S(=O)(=O)N2CCCCC2)CC1,-4.2%,-7.4%
CCCSCCCNC(=O)C1CCN(C(=O)c2cnn(-c3ccccc3)c2-n2cccc2)CC1,-11.3%,-4.7%
CCOC(=O)c1c(NC(=O)C2CC2)sc(C)c1CC,-12.5%,-13.1%
O=S(=O)(c1ccccc1Cl)N1CCN(c2nc(-c3ccccc3)nc3ccccc23)CC1,-10.4%,1.4%
CCOC(=O)C1=C(C)NC2=C(C(=O)CC(c3cccs3)C2)C1c1cccs1 (stereo unspecified),?,-25.6%
COc1ccc(Nc2ccc([N+](=O)[O-])c3nonc23)c(OC)c1,3.9%,?
COc1cc(OC)cc(C(=O)Oc2ccc(/C=N/Nc3nc4ccccc4s3)cc2OC)c1,-13.3%,-20.6%
CCN(CC)c1ccc(NC(=O)CN2CCN(CC(=O)Nc3ccccc3OC)CC2)cc1,-28.9%,?
COc1ccc(S(=O)(=O)N2CCC(C(=O)Nc3ccc(Oc4ccccc4)cc3)CC2)cc1,-17.9%[7.34 µM],-15.6%[7.34 µM]
C[C@H](CO)N1C[C@H](C)[C@@H](CN(C)S(=O)(=O)c2cccs2)OCc2cn(nn2)CCCC1=O,-1.0%,i
C=C(Br)Cn1c(CCCC)nc2ccccc21,-9.3%,.
Cc1ccc(NC(=O)NC2CCN(S(=O)(=O)c3ccc(F)cc3)CC2)cc1,-23.6%,-13.7%
COc1cccc(NC(=O)CN(C)C(=O)c2cc3c(s2)CCC3)c1,-11.8%,-11.2%
COP(C)(=O)c1c(C)nn(-c2ccccc2)c1C (stereo unspecified),?,.
COc1ccc(-c2[nH]ncc2/C=N/NC(=O)c2ccc(Br)cc2)c(OC)c1,-1.1%,-15.8%
CN(C(=O)c1ccc(NC(=O)Cc2ccc(NC(=O)C3CCN(C(=O)c4ccccc4)CC3)cc2)cc1)C1CC1,-11.3%,-10.8%
CC1=CC2=NC(=O)/C(=C/c3coc4ccccc4c3=O)C(=N)N2O1,-3.1%,i
Cc1cc(NC(=O)CS(=O)(=O)c2cn(Cc3cccc(Br)c3)c3ccccc23)no1,?,?
COC(=O)CCCn1cc(CN2CC(N3CCN(CCN(C)C)CC3)CS2(=O)=O)nn1 (stereo unspecified),-6.8%,1.5%
Cc1cc(C(=O)COC(=O)c2ccc(Cl)c(S(N)(=O)=O)c2)c(C)n1CC1CCCO1 (stereo unspecified),-20.5%,i
Cn1c(=O)cc(NCCc2ccccc2)[nH]c1=O,-30.2%,.
COc1ccc2c(c1)CC(C(=O)Nc1ccc(OC)cc1OC)CO2 (stereo unspecified),-1.7%,-6.8%
CC(C)N(Cc1ccccc1)C(=O)C1CCCN(c2ncnc3onc(-c4ccc(F)cc4)c23)C1 (stereo unspecified),-11.5%,-18.3%
CCCCN(CCCC)CCCNC(=O)C12CN(Cc3ccccc3)CC1C(c1cccc([N+](=O)[O-])c1)=NO2 (stereo unspecified),-26.3%,?

# Next section
SMILES,Vaccinia Venus,VACV mCherry inh
COc1ccc(/C=N/NC(=O)c2cc(C)on2)c2ccccc12,-13.8%,-4.5%
CCC(NC(=O)NCc1cccnc1)(C(F)(F)F)C(F)(F)F,10.7%,.
COc1cc(/C=C/C(=O)OCC(=O)Nc2cc(S(=O)(=O)N3CCOCC3)ccc2Cl)cc(OC)c1OC,-2.4%,-2.3%
CC(=O)c1c(C(C)=O)c(C)n(-c2nc(-c3ccccc3)c(C)s2)c1C,-26.0%,.
O=C(NC1c2ccccc2-c2ccccc21)c1ccco1,?,?
CC(=O)OC[C@@H]1CN(Cc2ccccc2)C[C@H](n2cnc3c(N4CCCC4)ncnc32)O1,-2.9%,-11.2%
Cc1cc2nc(N3CCCN(Cc4cccn4-c4ncccn4)CC3)nc(C)c2cc1C,11.9%,-18.2%
CCOC(=O)C1CCN(C(=O)CCC(=O)NCCc2ccc(Cl)cc2)CC1,-19.6%,i
CC1=C(C(=O)OCCNC(=O)c2ccccc2O)C(c2ccccc2[N+](=O)[O-])C(C(=O)OCC2CCCO2)=C(C)N1 (stereo unspecified),?,i
COc1ccc(CC(=O)Nc2ccc(S(=O)(=O)N3CCCC3)cc2)cc1OC,-11.1%,-17.0%
CC1CCCCN1CCNC(=O)Cn1nc(-c2ccccc2)ccc1=O (stereo unspecified),-13.6%,-10.1%
Cc1nonc1NC(=O)OCCN1CCOC1=O,-4.3%,-4.5%
CCCNC(=O)C1(C)CCN(C(=O)c2cc(F)cc(F)c2)C1 (stereo unspecified),-3.3%,-7.4%
COc1ccc(NC(=O)CN2CCCCC2)cc1,6.2%,-11.9%
O=C(NC(=S)NNC(=O)c1cccs1)c1ccc(Br)o1,-5.4%,-10.9%
Cc1cc(C)nc(N/N=C/c2ccncc2)n1,1.1%,-2.5%
Nc1nnnn1/N=C/c1ccccc1,-12.4%,i
CCN(CC(=O)Nc1ccc2c(c1)OCCO2)C(=O)c1cc(=O)[nH]c2ccccc12,-19.5%,-6.3%
CN(C)S(=O)(=O)c1cccc(COc2ccccc2C(=O)Nc2ccccc2)c1,-14.4%,-11.8%
Cc1ccc(N2CC(O)=C(c3nc4ccccc4c(=O)[nH]3)C2=N)cc1C,-9.9%,-11.4%
CC1(C)CC(=O)C(c2ccccc2)(c2ccccc2)C(=O)C1,1.3%,-14.3%
CNS(=O)(=O)c1ccc(NC(=S)Nc2ccc3c(c2)OCO3)cc1,-5.2%,-16.8%
Cc1cc(C)cc(Nc2cc(C)nc3nncn23)c1,-7.3%,-14.6%
COc1cccc(-c2nc(SCC(=O)NC3CCCC3)c(-c3ccc(F)cc3)[nH]2)c1,-14.3%,-5.7%
Cc1noc(C)c1CSCC(=O)Nc1ccc(OC(F)F)c(Cl)c1,-18.4%,i

# Reprinted at random: six entries already listed
SMILES,Vaccinia Venus,VACV mCherry inh
CC1=CC2=NC(=O)/C(=C/c3coc4ccccc4c3=O)C(=N)N2O1,-3.1%,i
Cc1ccc(NC(=O)NC2CCN(S(=O)(=O)c3ccc(F)cc3)CC2)cc1,-23.6%,-13.7%
Nc1nnnn1/N=C/c1ccccc1,-12.4%,i
NCCCC[C@@H](C(=O)N1CCNCC1)n1cc(CCC(=O)O)nn1,-1.7%,-10.5%
Cc1ccc(N2CC(O)=C(c3nc4ccccc4c(=O)[nH]3)C2=N)cc1C,-9.9%,-11.4%
O=C(Nc1ccc(S(=O)(=O)Nc2ncccn2)cc1)c1cc(=O)c2ccccc2o1,-7.8%,-12.5%

# In the list so far, 2 have an aryl thioether with sulfur outside any ring:
SMILES,Vaccinia Venus,VACV mCherry inh
C=CCn1c(SCC(=O)Nc2cc(C)on2)nnc1-c1ccccc1F,-2.9%,i
COc1cccc(-c2nc(SCC(=O)NC3CCCC3)c(-c3ccc(F)cc3)[nH]2)c1,-14.3%,-5.7%

# Later entries:
SMILES,Vaccinia Venus,VACV mCherry inh
COc1ccc(C(O)c2nc3ccccc3n2C(C)C)cc1 (stereo unspecified),-6.2%,-26.3%
CN1CCN(CC(=O)Nc2cccc([N+](=O)[O-])c2)CC1,-4.8%,i
O=C(Nc1ccc(F)cc1)c1cc(Cl)sc1Cl,-6.6%,i
CCNc1nc(NCC)nc(N(n2cnnc2)S(=O)(=O)c2ccc(C)cc2)n1,-19.9%,i
O=C(O)CC(NCc1ccco1)C(=O)OCCCl (stereo unspecified),-2.2%,i
CCC(=O)N1CCc2cc(S(=O)(=O)N(CC)c3cccc(C)c3)ccc21,-5.4%,-20.8%
COc1ccc(C2=NN(CCC(=O)NCc3cccs3)C(=O)CC2)cc1,11.6%,-11.2%
CCc1ccccc1NC(=O)Cn1nc(CC)n2c(cc3sccc32)c1=O,-18.9%,-19.8%
OC(COc1ccc2cc(Br)ccc2c1)CN1CCOCC1 (stereo unspecified),-21.9%,-10.8%
COc1ccc(-c2nnnn2CCc2ccccc2)cc1,-8.8%,-15.4%
CCCn1c(N2CCN(CC(=O)NCc3cccs3)CC2)nc2ccccc21,-4.3%,-14.5%
CC(C)CCn1c(O)c(N=NC(=O)Cn2ccc(C(F)(F)F)n2)c2ccccc21,-10.5%,-21.4%
COc1cccc(C(O)c2ncc(-c3ccc4ccccc4c3)[nH]2)c1 (stereo unspecified),-22.9%,-27.4%
Cc1ccccc1-c1nc(CN(C)C(C)c2ccon2)c(C)o1 (stereo unspecified),-6.0%,-2.1%
C[C@@H]1CC=C[C@H]2[C@H]1C(=O)N(Cc1ccccc1)[C@H]2c1ccc(F)c(-c2ccc(N(C)C)cc2)c1,-11.2%,?
CCOc1ccc(/C(C)=N/N2C(=O)C(CC(=O)Nc3ccc(OC)cc3[N+](=O)[O-])SC2=Nc2cccc(C)c2C)cc1 (stereo unspecified),-17.2%,-18.5%
Cc1ccc(Nc2nc(N)nc(CSC(=S)N3CCOCC3)n2)c(C)c1,-14.7%,?
Cn1nc([N+](=O)[O-])nc1Sc1ccc(C(C)(C)C)cc1,0.0%,-12.9%
O=C(NCC(c1ccco1)N1CCc2ccccc21)c1cccc(F)c1 (stereo unspecified),-18.6%,?
CCCC1OC2C[C@@H]3[C@H]4CCC5=CC(=O)C=C[C@]5(C)[C@H]4C(O)C[C@]3(C)[C@]2(C(=O)CO)O1 (stereo partly specified),-28.1%,-25.7%
CN1CC2(C)OC(=O)C(Cl)=C2CC1c1ccccc1 (stereo unspecified),5.5%,-12.1%
CCOC(=O)C1=C(CN(CC)Cc2ccccc2)NC(=O)NC1c1ccc(Cl)cc1 (stereo unspecified),-10.5%,-20.1%
O/N=C1\CCCCc2ccccc21,-13.7%,-13.6%
CCc1ccccc1NC(=O)C(CC)Oc1ccccc1-c1nnc(-c2ccccc2)o1 (stereo unspecified),-19.0%,?
CCCN1CCN(C(=O)CN2C(=O)COc3ccc(S(=O)(=O)N(CC)CC)cc32)CC1,-12.8%,i

# Going on with the list:
SMILES,Vaccinia Venus,VACV mCherry inh
CC(C)Oc1ccc(C(=O)Nc2ccc(-c3nc4ccccc4s3)cc2)cc1,-22.7%,-20.4%
COC(=O)[C@H](C)N(Cc1ccc(Cl)c(Cl)c1)S(=O)(=O)CCN1CCCC1,?,?
CCOC(=O)c1ccc(N=C(C)c2c(O)[nH]c(=O)[nH]c2=O)cc1,-2.0%[7.34 µM],i[7.34 µM]
CCc1ccc(NC(=O)CCS(=O)(=O)c2cc3c(cc2Cl)NC(=O)CO3)cc1,11.0%,2.6%
O=C(COC(=O)c1cc([N+](=O)[O-])ccc1N1CCOCC1)c1ccc(OC(F)F)cc1OC(F)F,-29.6%,-13.4%
CCOC(=O)[C@]12CCC=C1N(Cc1cccc3ccccc13)C(=O)[C@H](CC(=O)N1CCCC1)C2,-8.3%,-7.3%
